Mtb bLac sens: beta-lactam sensitization of Mtb H37Rv, H37Rv | M. tuberculosis H37Rv growth with meropenem, percent inhibition; hits of this screen are not shown here | inhibition, % at 25 µM | 330,000 tested, 0.27% active | AID 434955, 2010;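 active = about 74% or more and at least 40 points above the plate without the antibiotic, then above 30% in a dose series; inconclusive = first-round hits that could not be retested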;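 also: growth measured after seven days incubation then overnight dye step; 0% = bacteria only wells and 100% = bacteria with antibiotic; twin plates without the antibiotic show which effects depend on it; some results filed as inactive read as strong as hits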
Mtb growth: M. tuberculosis H37Rv growth inhibitors, H37Rv strain (AID 1626) | 220,000 tested, 0.95% active | inhibition, % at 10 µM; hits with a dose series show IC50 in µM | M. tuberculosis H37Rv growth inhibition; higher % means a stronger effect;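 active = confirmed in a dose series; inconclusive = inhibition above 80% but not taken into the dose series; inactive = below 80% or under 30% at every dose of the series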;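 also: bacteria incubated seven days before Alamar blue readout; 0% = bacteria only wells and 100% = bacteria with antibiotic wells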
Arbovirus inh: antivirals against arbovirus infection, primary screen, cell-based, full library, 10K replicate subset | arbovirus infection cell-based antiviral screen | 200,000 tested, 0.37% active | inhibition, % at 10 µM;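 active = inhibition from about 30%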;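 also: bluetongue infection of BSR cells; cell survival read as ATP light after 72 h; 0% = infected wells without compound and 100% = uninfected wells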
RecA splice inh: Mtb RecA intein splicing inhibitors, primary screen, biochemical, fluorescence, HTS; Protein RecA (Mycobacterium tuberculosis (strain ATCC 25618 / H37Rv)), P9WHJ3; cell-free RecA intein splicing; inhibition, %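 (about 9 µM by stock and volumes)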; 290,000 tested, 0.75% active; in the data active = inhibition above about 30%; inconclusive = no clear call, values can overlap the other calls;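 also: 0% = vehicle wells and 100% = reference inhibitor control wells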
Target sequence (P9WHJ3 whole entry, looked up, canonical isoform): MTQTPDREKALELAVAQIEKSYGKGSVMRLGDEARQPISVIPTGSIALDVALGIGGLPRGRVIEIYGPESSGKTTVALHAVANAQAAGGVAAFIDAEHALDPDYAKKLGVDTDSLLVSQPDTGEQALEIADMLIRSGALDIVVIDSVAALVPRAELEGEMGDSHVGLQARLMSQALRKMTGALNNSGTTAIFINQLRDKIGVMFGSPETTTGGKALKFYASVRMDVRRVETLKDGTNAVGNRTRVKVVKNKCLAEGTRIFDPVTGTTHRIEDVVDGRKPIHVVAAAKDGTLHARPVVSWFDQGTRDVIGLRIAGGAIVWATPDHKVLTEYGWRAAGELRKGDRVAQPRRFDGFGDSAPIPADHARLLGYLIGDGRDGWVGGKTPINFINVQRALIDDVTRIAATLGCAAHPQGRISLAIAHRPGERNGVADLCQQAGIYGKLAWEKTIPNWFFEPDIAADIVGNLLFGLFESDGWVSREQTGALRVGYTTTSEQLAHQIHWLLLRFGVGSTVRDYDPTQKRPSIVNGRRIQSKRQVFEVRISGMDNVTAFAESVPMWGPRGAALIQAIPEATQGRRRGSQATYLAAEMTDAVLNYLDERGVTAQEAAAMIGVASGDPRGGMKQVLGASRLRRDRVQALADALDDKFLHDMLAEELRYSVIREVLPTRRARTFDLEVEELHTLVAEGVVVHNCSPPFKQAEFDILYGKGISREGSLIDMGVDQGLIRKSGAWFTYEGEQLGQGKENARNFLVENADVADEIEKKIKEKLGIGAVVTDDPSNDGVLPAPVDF
YopH inh: YopH tyrosine phosphatase inhibitors, primary screen, biochemical, fluorescence Ex485/Em525; YopH tyrosine phosphatase [Yersinia enterocolitica]; inhibition, %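 (about 10 µM by stock and volumes)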; 140,000 tested, 0.16% active;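 active = inhibition of 50% or more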;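 also: controls were vehicle for no effect and minimum signal wells for full effect; inactives centre near -20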
Arbovirus inh repeat: also measured in Arbovirus inh; calls as there; inhibition, %; measured here: 10K subset replicate screen; many hits read low in the repeat;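 first of two repeat runs on a subset; 0% = infected and 100% = uninfected wells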
Active calls of the source: *; ? = inconclusive; / = not tested or not shown.

SMILES	Mtb bLac sens	Mtb growth	Arbovirus inh	RecA splice inh	YopH inh	others
Cc1nc2c(-c3ccccc3)c(C)nn2c(C)c1CCC(=O)NC(C)CCc1ccco1 (stereo unspecified)	-4	7%	-15	-1.6	-36
CCC(=O)N1CCc2cc(Br)cc(S(=O)(=O)CCC(=O)NCCc3ccccc3)c21	3	-2%	9	0.6	-10
CCOC(=O)C1CCN(c2cc3c(cc2NC(=O)c2cc(OC)ccc2Br)n(C)c(=O)n3C)CC1	-4	/	/	-12	/
CC(=O)N1CCN(c2nc3ccc(Br)cc3s2)CC1	8	/	/	0.3	/
COc1ccc(OCCC(=O)Nc2ccccc2)cc1	6	/	/	-3.8	/
O=C(Cn1cnc([N+](=O)[O-])n1)N/N=C/c1cccc(Cl)c1	11	2%	3	1.2	/
C=CCc1cccc(/C=N/NC(=O)CCC(=O)Nc2ccc(C)cc2)c1O	1	-5%	-32	-6.7	-30
O=C(N/N=C/c1ccc(Br)s1)c1cccc([N+](=O)[O-])c1	2	12%	-5	-0.4	-13
Cc1ccc(C(NC(=O)N2CCN(C)CC2)C(Cl)Cl)cc1F (stereo unspecified)	-1	-3%	10	-0.6	/
O=[N+]([O-])c1ccc2ncnc(Nc3ccc4c(c3)OCCO4)c2c1	10	9%	8	-0.4	/
CCN1CCN(C(c2ccc(F)cc2)c2nnnn2Cc2ccc3c(c2)OCO3)CC1 (stereo unspecified)	2	-6%	-4	-2.7	/
Cc1c(NC(=S)Nc2ccccc2)c(=O)n(-c2ccccc2)n1C	-9	1%	4	-3.4	-30
CC(C)C(=O)N1c2ccccc2NC2=C(C(=O)CCC2)C1c1ccc(N(C)C)cc1 (stereo unspecified)	-4	-6%	1	/	-4
CCc1cc(C(=O)N=Nc2c(O)[nH]c3c(Br)cc(Br)cc23)c2ccccc2n1	52	70%	25	26	-22
CCC1CCCCN1CCCNC(=O)c1ccc(CS(=O)(=O)c2ccc(Br)cc2)o1 (stereo unspecified)	-1	/	/	0.6	/
CC(Oc1ccccc1Cl)C(=O)N1CCOCC1 (stereo unspecified)	-4	3%	4	1.3	-19
COc1ccccc1CNC(=O)CN1CCC(n2cnc3cc(F)ccc32)CC1	1	5%	13	1.0	-31
CC(=O)NCCCc1nc2ccccc2n1Cc1cc(C)ccc1C	11	1%	6	-2.7	/
Cc1nn(C)c(C)c1CNC(=O)Nc1cccc(Cl)c1	-17	-10%	-1	-2.3	/
Fc1ccc(NC(=S)Nc2cccc3cnccc23)cc1	-5	52%	1	1.9	/
Cc1ccnc(Nc2nc3ccccc3o2)n1	52	10%	-10	-0.8	-1	Arbovirus inh repeat=2
CCn1c(=O)cc(OCC(=O)NCCCN2CCCC2=O)c2ccccc21	1	/	/	-3.8	/
CC1CCCN(CC(O)COc2ccc3c(c2)OCO3)C1 (stereo unspecified)	4	-2%	-2	-0.6	/
CCCN(C(=O)c1cccs1)c1nnc(-c2ccncc2)s1	-5	/	10	-2.0	-25
CC1CN(S(=O)(=O)c2cccc(C(=O)N(CCc3ccccc3)Cc3ccccc3)c2)CC(C)O1 (stereo unspecified)	-7	/	/	6.6	/

(next part)
SMILES	Mtb bLac sens	Mtb growth	Arbovirus inh	RecA splice inh	YopH inh	others
Cn1c(SCC(=O)Nc2ccc(F)cc2)nc2c(c1=O)SCC2	-1	/	/	1.1	/
Cc1ccc(C)c(C(=O)Nc2cc(C)nn2-c2nc(C)cc(C)n2)c1	81	22%	-15	2.8	/
CC(=O)c1ccc(N2C(=O)C3C4C=CC(CC4)C3C2=O)cc1 (stereo unspecified)	-4	/	/	0.9	/
Cc1ccn2cc(CCNC(=O)C3CCCCC3)nc2c1	-7	1%	-5	2.4	-44
COc1ccc(C(=O)NNC(=O)CSc2nnc(C)n2C)cc1	6	-6%	0	-1.9	/
OCC1(Cc2ccccc2C(F)(F)F)CCN(Cc2ccc3c(c2)CCO3)CC1	1	-4%	-30	3.7	/
COc1ccc(CCn2c(O)c(C=NC3CC3)c(=O)[nH]c2=O)cc1OC	-8	-7%	2	-0.3	-48
Cn1c(=O)c2c(nc3n2CC(COc2ccc(Cl)cc2)O3)n(C)c1=O (stereo unspecified)	-2	/	/	-1.1	/
Nc1c(C(=O)Nc2ccccc2F)sc2nc(-c3cccnc3)ccc12	-1	1%	/	-19	/
O=C(NC(=S)Nc1ccccc1N1CCCC1)c1ccccc1Br	84	/	/	7.1	/
CCN(CC)C(=O)C(=O)c1cccn1-c1cccc(-n2cccc2C(=O)C(=O)N(CC)CC)c1C#N	-7	/	1	-0.6	6
CCSc1nnc(NC(=O)CCc2ccc(OC)cc2)s1	-1	2%	12	1.3	-34
NC(=O)N1CCC2(CC1)NC(=O)N(c1ccccc1)N2	2	?	-32	-2.2	/
CCCOc1ccc(/C=N/NC(=O)CN(c2ccc(OCC)cc2)S(C)(=O)=O)cc1	-10	-2%	/	1.7	/
c1coc(-c2nnc(-c3ccco3)nn2)c1	1	/	/	58*	/
COc1ccc(C2=NS(=O)(=O)N(C)C(C(=O)N(C)Cc3ccccc3)=C2)cc1OC	2	/	/	1.3	/
COc1ccc2c(c1)Cc1sc(NC(=O)c3ccccc3)nc1-2	20	12%	-5	4.7	12
CC(=O)c1cc2c(cc1N(C(=O)Cn1nnc3ccccc31)C(C(=O)NCCC(C)C)c1cccnc1)OCO2 (stereo unspecified)	-9	-4%	1	-3.4	/
CCC(=O)OCc1c(C(F)(F)F)nn(C)c1Oc1cccc(C(F)(F)F)c1	12	4%	4	-1.4	3
CC1=CC(C)C2C(=O)N(CCCN(C)C)C(=O)C2C1 (stereo unspecified)	-7	-2%	2	-1.2	-3
C[C@@H]1CC=C[C@H]2[C@H]1C(=O)N(Cc1ccccc1)[C@H]2c1ccc2ccccc2c1/C=C/c1ccccc1	1	10%	/	-2.3	/
COc1cccc(OCCNC(=O)Nc2cc(F)c(F)cc2Cl)c1	-9	2%	3	-0.6	/
Cc1nc2ccccn2c1P(=S)(N1CCCCC1)N1CCCCC1	-2	/	-16	6.1	-9
Cc1ccc(C(OCCN(C)C)c2cccc(C(F)(F)F)c2)cc1 (stereo unspecified)	-3	9%	-24	1.0	-14
CC(C)c1ccc(NC2CCCN(C(=O)c3cccc4nccnc34)C2)cc1 (stereo unspecified)	4	/	/	0.3	/

Brought forward from above: three compounds, followed by the next part.
SMILES	Mtb bLac sens	Mtb growth	Arbovirus inh	RecA splice inh	YopH inh	others
Cc1nc2ccccn2c1P(=S)(N1CCCCC1)N1CCCCC1	-2	/	-16	6.1	-9
Cc1ccc(C(OCCN(C)C)c2cccc(C(F)(F)F)c2)cc1 (stereo unspecified)	-3	9%	-24	1.0	-14
CC(C)c1ccc(NC2CCCN(C(=O)c3cccc4nccnc34)C2)cc1 (stereo unspecified)	4	/	/	0.3	/
CC1CC(C)(C)NC(=S)N1CCC(=O)N1CCN(c2ccccc2)CC1 (stereo unspecified)	-7	-4%	4	4.8	/
COC(=O)CCCC(=O)N(C)CC1CCCN(CCc2ccccc2C)C1 (stereo unspecified)	-1	/	/	1.7	/
COc1ccc(CC(=O)Nc2ccc(S(=O)(=O)Nc3nc(C)cc(C)n3)cc2)cc1	6	-1%	13	-1.1	-20
CN(C)c1ccc(NC(=O)c2ccc([N+](=O)[O-])cc2Cl)cc1	10	-6%	-1	/	-10
CN1CCN(C(=O)c2cnn(-c3ccccc3)c2NC(=O)c2ccccc2)CC1	-3	-6%	6	-1.7	/
N=c1n(CC(=O)c2ccc([N+](=O)[O-])cc2)c2ccccc2n1Cc1ccccc1Cl	6	7%	-5	/	-5
O=C(CCCCN1CCCCC1)c1ccc2c(c1)Cc1ccccc1-2	16	14%	-37	3.6	/
COCCOC(=O)c1c(C)oc2ccc(OC(=O)c3ccco3)cc12	92	7.1µM*	-1	24	-5
CCSc1nnc(NC(=O)NC2CCCCC2)s1	-10	1%	14	-0.8	/
COCc1ccc(C(=O)N2CCc3c([nH]c4ccccc34)C2c2ccccn2)s1 (stereo unspecified)	1	10%	-9	-3.7	/
COc1cccc(NC(=O)NNC(=O)COc2ccc3ccccc3c2)c1	-3	/	/	0.9	/
Cc1cccc(C)c1N1CCN(C(=O)Nc2ccc3c(c2)OCCO3)CC1	1	-10%	2	6.1	-34
COc1ccc(-c2nn(CCC#N)cc2C(=O)Nc2cccc(C(=O)O)c2)cc1OC	-7	/	/	3.0	/
Cc1ccc(/C=N/N2CCN(c3ccc(Cl)cc3)CC2)o1	2	4%	-8	/	-11
CCOC(=O)c1sc(NC(=O)CSc2nnc(C(C)C)n2C)nc1C	2	-9%	2	0.5	-20
O=C(c1ccc(Cl)cc1)C1CCN(C(=O)C2CC2)CC1	-7	-13%	-6	-4.0	-1
COC1=C(Nc2ccccc2OC)C(=O)c2ccccc2C1=O	18	13%	/	10.0	/
Cc1ccccc1-n1c(SCc2c(C)noc2C)nnc1-c1c[nH]c2ccccc12	2	-1%	1	-3.3	-32
COc1cccc(C(=O)Nc2ccc(S(=O)(=O)Nc3onc(C)c3C)cc2)c1	-2	-5%	1	-1.1	-25	Arbovirus inh repeat=1
CC(C)C(OC(=O)CN1C(=O)c2ccccc2C1=O)C(=O)NC1CCCC1 (stereo unspecified)	-2	/	/	-0.8	/
NNC(=O)c1cccnc1Oc1ccccc1	-12	-2%	/	1.3	/

Filtered by structure, the entries above with a Cl atom (ten)
SMILES	Mtb bLac sens	Mtb growth	Arbovirus inh	RecA splice inh	YopH inh	others
O=C(Cn1cnc([N+](=O)[O-])n1)N/N=C/c1cccc(Cl)c1	11	2%	3	1.2	/
Cc1ccc(C(NC(=O)N2CCN(C)CC2)C(Cl)Cl)cc1F (stereo unspecified)	-1	-3%	10	-0.6	/
CC(Oc1ccccc1Cl)C(=O)N1CCOCC1 (stereo unspecified)	-4	3%	4	1.3	-19
Cc1nn(C)c(C)c1CNC(=O)Nc1cccc(Cl)c1	-17	-10%	-1	-2.3	/
Cn1c(=O)c2c(nc3n2CC(COc2ccc(Cl)cc2)O3)n(C)c1=O (stereo unspecified)	-2	/	/	-1.1	/
COc1cccc(OCCNC(=O)Nc2cc(F)c(F)cc2Cl)c1	-9	2%	3	-0.6	/
CN(C)c1ccc(NC(=O)c2ccc([N+](=O)[O-])cc2Cl)cc1	10	-6%	-1	/	-10
N=c1n(CC(=O)c2ccc([N+](=O)[O-])cc2)c2ccccc2n1Cc1ccccc1Cl	6	7%	-5	/	-5
Cc1ccc(/C=N/N2CCN(c3ccc(Cl)cc3)CC2)o1	2	4%	-8	/	-11
O=C(c1ccc(Cl)cc1)C1CCN(C(=O)C2CC2)CC1	-7	-13%	-6	-4.0	-1

These rows are one share of the data; rates above refer to the full screens.
